# Bioassay records: PubChem BioAssay, Broad Institute
# rRNA inh HTS – inhibits bacterial ribosomal RNA function over humanized ribosomes; 350,000 compounds, 1.6% hits; E. coli WT GFP vs humanized-ribosome RFP mutants, fluorescence, 24 h; hits give low values; DMSO median 0, no signal -100; GFP signal change (wild-type ribosome), % (no concentration beside the values);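 active = significant combined selectivity score with lowered wild-type GFP, culture density cut under 30%, mutant RFP and density less affected; inactive = any of these conditions unmet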; note: one replicate is shown; some compounds called inactive have numbers as strong as hits
# rRNA inh HTS OD600 – further read-out of rRNA inh HTS, marked with its call; OD600 change, %; measured here: OD600 growth;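 optical density of the mix in the first replicate; 0 = DMSO median and -100 = no signal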
# rRNA inh HTS RFP – also measured in rRNA inh HTS; calls as there; RFP signal change, %; measured here: RFP humanized mutant strains;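 first replicate; 0 = DMSO median and -100 = no signal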
# Starred values were filed as active, the others as inactive; & = joins results of further samples. Not all compounds are listed. The share of hits here may be higher or lower than overall.
rRNA inh HTS	rRNA inh HTS OD600	rRNA inh HTS RFP	Structure
-4	-5	4.0	Cc1ccc(S(=O)(=O)N(C)C[C@H]2Oc3ncc(C#CC4(O)CCCC4)cc3C(=O)N([C@H](C)CO)C[C@@H]2C)cc1
-6	-9	0.1	Cc1noc(C)c1S(=O)(=O)N(C)C[C@H]1OCCCC[C@@H](C)Oc2ccc(NC(=O)C3CCCCC3)cc2C(=O)N([C@@H](C)CO)C[C@H]1C
0	3	4.5	COC(=O)C[C@H]1CC[C@H]2[C@H](COc3ccc(NC(=O)c4ccc(F)cc4)cc3C(=O)N2C)O1
1	-4	-1.0	CCc1nc2c(OCc3ccc(C(=O)N(C)C)cc3)cccn2c1N(C)C(=O)Nc1ccccc1OC
1	-2	-0.5	O=C(C[C@H]1C[C@H]2c3cc(NC(=O)c4ccc5c(c4)OCO5)ccc3O[C@H]2[C@@H](CO)O1)NCc1ccccn1
6	11	-3.1	CC(C)NC(=O)N(C)C[C@@H]1Oc2ncc(-c3cncnc3)cc2C(=O)N([C@@H](C)CO)C[C@@H]1C
-56	-78	-14	COc1cccc(C(C)(O)c2nc(-c3ccc(F)c(Cl)c3)cs2)c1 (stereo unspecified)
1	-6	-0.8	Cc1ccc(S(=O)(=O)N(C)C[C@H]2OCCCC[C@@H](C)Oc3ccc(NC(=O)Nc4ccc(F)cc4)cc3C(=O)N([C@H](C)CO)C[C@@H]2C)cc1
1	5	-0.7	CO[C@@H]1CN(C)C(=O)c2ccc(NC(=O)c3cnccn3)cc2OC[C@@H](C)N(C)C[C@@H]1C
-1	-1	-0.2	COc1ccc(S(=O)(=O)N(C)C[C@H]2OCCCC[C@@H](C)Oc3ccc(NS(=O)(=O)c4ccccc4)cc3C(=O)N([C@@H](C)CO)C[C@H]2C)cc1
-1	-6	3.5	O=C([C@H]1[C@H](CO)[C@H]2Cn3c(ccc(/C=C/c4ccccc4)c3=O)[C@H]2N1CC1CC1)N1CCOCC1
3	4	0.2	CCNC(=O)C[C@@H]1CC[C@H]2[C@H](COc3ccc(NC(=O)Nc4ccc(C)cc4)cc3C(=O)N2C)O1
6	9	-1.9	CCCC(=O)N1CCC1(C)C(=O)NS(=O)(=O)c1cc2c(cc1C)CCCS2(=O)=O (stereo unspecified)
1	13	0.2	CC(=O)NC(C)(c1ccccc1)c1nc(-c2cncnc2)cs1 (stereo unspecified)
20	18	1.9	C=CC[C@]1(c2ccccc2)C(=O)N2C[C@H]3CON(C)[C@H]3C[C@H]2c2ccccc21
-5	-2	0.7	CCCC(=O)Nc1ccc2c(c1)OC[C@@H](C)N(Cc1nccs1)C[C@H](C)[C@H](OC)CN(C)C2=O
6	14	-1.5	Cc1ccc(S(=O)(=O)N(C)C[C@@H]2OCCCC[C@H](C)Oc3ccc(NC(=O)NC4CCCCC4)cc3C(=O)N([C@H](C)CO)C[C@@H]2C)cc1
-1	-7	2.0	C[C@@H]1CCCCO[C@@H](CN(C)Cc2ccc(Cl)c(Cl)c2)[C@H](C)CN([C@@H](C)CO)C(=O)c2cc(NC(=O)Cc3ccccc3)ccc2O1
10	9	1.1	COCCNC(=O)C1(C)CCN(C(=O)c2cccc(C)c2C)C1 (stereo unspecified)
3	4	-0.8	CCC(=O)N1[C@@H]2c3ccc(-c4cccnc4)c(=O)n3C[C@H]1[C@H](CO)[C@H]2C(=O)NC1CCC1

# As entered above:
# `CCC(=O)N1[C@@H]2c3ccc(-c4cccnc4)c(=O)n3C[C@H]1[C@H](CO)[C@H]2C(=O)NC1CCC1` – rRNA inh HTS = 3
# `CO[C@@H]1CN(C)C(=O)c2ccc(NC(=O)c3cnccn3)cc2OC[C@@H](C)N(C)C[C@@H]1C` – rRNA inh HTS OD600 = 5
# `COc1cccc(C(C)(O)c2nc(-c3ccc(F)c(Cl)c3)cs2)c1` (stereo unspecified) – rRNA inh HTS RFP = -14

# Next records
rRNA inh HTS	rRNA inh HTS OD600	rRNA inh HTS RFP	Structure
-2	-1	3.0	CC(C)NC(=O)N(C)C[C@@H]1Oc2cc(C3=CCCC3)ccc2S(=O)(=O)N([C@@H](C)CO)C[C@@H]1C
-1	2	-1.8	C[C@@H]1CCCCO[C@@H](CN(C)C(=O)Nc2ccc(F)cc2)[C@H](C)CN([C@@H](C)CO)C(=O)c2cc(NS(=O)(=O)c3cn(C)cn3)ccc2O1
1	-1	1.3	COC(=O)C[C@H]1CC[C@@H]2[C@H](COc3ccc(NC(=O)Nc4ccc(C)cc4)cc3C(=O)N2C)O1
8	-8	2.6	O=C(c1cnccn1)N1CC(=O)N2[C@@H](CO)[C@H](c3ccc(C#CC4CCCCC4)cc3)[C@@H]2C1
2	1	-1.5	C[C@@H]1CN([C@H](C)CO)C(=O)Cc2cc(NS(C)(=O)=O)ccc2O[C@H]1CN(C)S(=O)(=O)c1cn(C)cn1
-4	-3	1.6	COc1ccc(NC(=O)N[C@@H]2CC[C@H](CCNS(=O)(=O)c3cccc(Cl)c3)O[C@H]2CO)cc1
-54	-80	-16	COC(=O)C1=C(C)N(Cc2ccc(C(F)(F)F)cc2)C(=NCc2ccccc2)NC1c1ccc(C(F)(F)F)cc1 (stereo unspecified)
4	4	1.9	CCOC(=O)[C@]12CCC=C1N(Cc1ccccc1)C(=O)[C@H](CC(=O)NCc1ccc(OC)c(OC)c1)C2
2	8	-0.9	O=C(c1ccncc1)N1CC2(C1)[C@H](c1ccccc1)[C@@H](CO)N2CC1CCOCC1
0	-2	-1.9	COc1cccc(NC(=O)N(C)C[C@@H]2OCc3cn(nn3)CCCC(=O)N([C@@H](C)CO)C[C@@H]2C)c1

# Next section; it opens with the 3 that closed the last part.
rRNA inh HTS	rRNA inh HTS OD600	rRNA inh HTS RFP	Structure
4	4	1.9	CCOC(=O)[C@]12CCC=C1N(Cc1ccccc1)C(=O)[C@H](CC(=O)NCc1ccc(OC)c(OC)c1)C2
2	8	-0.9	O=C(c1ccncc1)N1CC2(C1)[C@H](c1ccccc1)[C@@H](CO)N2CC1CCOCC1
0	-2	-1.9	COc1cccc(NC(=O)N(C)C[C@@H]2OCc3cn(nn3)CCCC(=O)N([C@@H](C)CO)C[C@@H]2C)c1
-55	-77	-18	CC(O)(c1ccc(F)c(F)c1)c1nc(-c2ccc(F)c(Cl)c2)cs1 (stereo unspecified)
-2	-3	-3.5	C[C@@H]1CN([C@@H](C)CO)C(=O)c2cc(NC(=O)c3ccncc3)ccc2O[C@@H]1CN(C)Cc1ccc(C(=O)Nc2ccccc2N)cc1
3	9	0.7	O=C(Cc1ccccn1)N[C@H]1CC[C@H](CCn2cc(-c3cccnc3)nn2)O[C@H]1CO
-1	-10	-0.2	O=C(C[C@H]1CC[C@H](NC(=O)C2CC2)[C@H](CO)O1)NCc1ccncc1
-3	2	-5.2	COCC#Cc1ccc([C@@H]2[C@@H](CO)N3C(=O)CN(C(=O)C4CC4)C[C@H]23)cc1
2	5	-0.9	C[C@@H]1CN([C@H](C)CO)C(=O)Cc2cc(NS(=O)(=O)c3cccs3)ccc2O[C@@H]1CN(C)S(C)(=O)=O
4	0	-2.3	COc1ccc(NC(=O)N(C)C[C@H]2Oc3c(NC(=O)NC(C)C)cccc3C(=O)N([C@@H](C)CO)C[C@H]2C)cc1
0	-30	17	O=C(Nc1cccc(F)c1)N1CC(=O)N2[C@@H](CO)[C@H](c3ccc(-c4ccccc4)cc3)[C@@H]2C1
0	-2	-3.1	CCCC(=O)Nc1ccc2c(c1)C(=O)N(C)C[C@@H](OC)[C@@H](C)CN(C(=O)c1ccccc1F)[C@@H](C)CO2
-3	-1	1.4	C[C@@H]1CN([C@@H](C)CO)C(=O)Cc2cc(N(C)C)ccc2O[C@@H]1CN(C)S(=O)(=O)c1cccs1
-1	2	-4.4	COc1cccc(-c2ccc3n(c2=O)C[C@H]2[C@H](CO)[C@@H](C(=O)NCC4CC4)N(C(=O)NC(C)C)[C@@H]32)c1
-3	3	0.2	C#CCNC(=O)C[C@@H]1C[C@@]2(C(=O)OC)CCCCC=C2N(CCCCCCCC)C1=O
-8	-53	25	CCCNC(=O)N1CC(=O)N2[C@H](CO)[C@H](c3ccc(C#Cc4cccc(F)c4)cc3)[C@@H]2C1
-6	-27	6.1	O=C(Nc1ccc(C(F)(F)F)cc1)N[C@H]1CC[C@H](CCn2cc(C3(O)CCCC3)nn2)O[C@H]1CO
-15	-18	3.6	O=C(NCC[C@H]1CC[C@@H](NC(=O)C2CCC2)[C@H](CO)O1)Nc1ccc(Cl)cc1
0	-12	23	C[C@@H]1CCCCO[C@@H](CN(C)CC2CCCCC2)[C@@H](C)CN([C@@H](C)CO)C(=O)c2cc(NC(=O)Nc3ccc4c(c3)OCO4)ccc2O1
-2	-14	-0.3	C[C@@H]1CN([C@H](C)CO)S(=O)(=O)c2ccc(-c3cccc(C#N)c3)cc2O[C@@H]1CN(C)Cc1ccccn1
8	10	2.5	CC(C)(C)OC(=O)N[C@H]1C=C[C@@H](CC(=O)OCC(F)(F)F)C1
-31	-50	26	CC(C)CC#Cc1ccc([C@H]2[C@H]3CN(C(=O)Nc4ccc(F)cc4)CC(=O)N3[C@H]2CO)cc1
5	9	-1.0	C[C@@H]1CN([C@H](C)CO)C(=O)Cc2cc(NS(=O)(=O)c3ccccc3)ccc2O[C@H]1CN(C)S(=O)(=O)c1cn(C)cn1
-1	6	1.0	C[C@H]1CCCCO[C@H](CN(C)C(=O)Nc2ccccc2)[C@@H](C)CN([C@@H](C)CO)C(=O)c2cc(NS(C)(=O)=O)ccc2O1
0	6	-1.9	COc1ccc2c3c(n(C)c2c1)[C@H](CO)N(C(=O)NC(C)C)CC31CCN(C(=O)NC(C)C)CC1
-2	-10	-5.7	O=C(C1CCC1)N1CC(=O)N2[C@H](CO)[C@@H](c3ccc(C#CCc4ccccc4)cc3)[C@H]2C1
0	10	-0.9	CC(C)NC(=O)Nc1ccc2c(c1)C(=O)N([C@H](C)CO)C[C@@H](C)[C@H](CN(C)C(=O)Nc1ccc3c(c1)OCO3)O2
0	-4	-1.7	CO[C@H]1CN(C)C(=O)c2ccc(NC(C)=O)cc2OC[C@@H](C)N(CCC(F)(F)F)C[C@H]1C
-2	-7	-1.4	C[C@H]1CN([C@@H](C)CO)C(=O)c2cccc(NC(=O)Nc3ccc(C(F)(F)F)cc3)c2O[C@@H]1CN(C)Cc1ccc(C(=O)O)cc1
9	6	4.8	CC(=O)Nc1ccc(-c2ccnc3c2CC(C)(C(=O)Nc2cccc(Oc4ccccc4)c2)O3)cc1 (stereo unspecified)
5	-7	12	OC[C@@H]1[C@H](c2ccc(C#Cc3ccccc3F)cc2)[C@H]2CN(Cc3cncnc3)CCCCN12
-3	-10	-1.5	CCS(=O)(=O)Nc1ccc2c(c1)C(=O)N(C)C[C@@H](OC)[C@H](C)CN(CC1CCCC1)[C@@H](C)CO2
-4	-17	0.0	COc1ccc2c3c([nH]c2c1)[C@@H](CO)N(C(=O)NC(C)C)CC31CCN(Cc2ccc(F)cc2)CC1
0	8	-2.2	Cc1noc(C)c1NC(=O)Nc1cccc2c1O[C@H](CN(C)C(=O)NC(C)C)[C@H](C)CN([C@H](C)CO)C2=O
-2&5	6&6	1.3&-5.5	CCCNC(=O)N[C@H]1C=C[C@H](CC(=O)NC2CCCCC2)O[C@@H]1CO
3	5	-0.2	CC(C)CCNC(=O)c1cc(S(=O)(=O)N2CCC3(CC2)OCCO3)ccc1F
-2	-5	-1.5	C[C@@H]1CN([C@@H](C)CO)C(=O)c2cc(NC(=O)Nc3ccc(F)cc3)ccc2O[C@@H](C)CCCCO[C@@H]1CN(C)S(=O)(=O)c1cn(C)cn1
5	11	-1.2	CN(C)CC(=O)N[C@H]1CC[C@H](CCn2cc(C3CCCC3)nn2)O[C@@H]1CO
-1	3	-3.2	CNC[C@H]1Oc2ccc(NC(=O)Nc3c(C)noc3C)cc2C(=O)N([C@H](C)CO)C[C@H]1C
9	16	-2.2	COc1ccc(Cl)cc1NS(=O)(=O)c1cccc(C(=O)NCCCN2CCOCC2)c1
-4	-40	24	O=C(c1ccccc1)N1CC(=O)N2[C@H](CO)[C@H](c3ccc(C#CCC4CCCC4)cc3)[C@@H]2C1
-2	1	0.2	C[C@@H]1CN([C@@H](C)CO)C(=O)Cc2cc(N(C)C)ccc2O[C@@H]1CN(C)S(=O)(=O)c1ccc(F)cc1
-1	-9	0.1	Cc1noc(C)c1S(=O)(=O)N(C)C[C@@H]1Oc2ccc(NC(=O)NC3CCCCC3)cc2CC(=O)N([C@H](C)CO)C[C@@H]1C

# Among those listed so far, 2 have a thiophene ring, fused or not:
rRNA inh HTS	rRNA inh HTS OD600	rRNA inh HTS RFP	Structure
2	5	-0.9	C[C@@H]1CN([C@H](C)CO)C(=O)Cc2cc(NS(=O)(=O)c3cccs3)ccc2O[C@@H]1CN(C)S(C)(=O)=O
-3	-1	1.4	C[C@@H]1CN([C@@H](C)CO)C(=O)Cc2cc(N(C)C)ccc2O[C@@H]1CN(C)S(=O)(=O)c1cccs1

# (more compounds)
rRNA inh HTS	rRNA inh HTS OD600	rRNA inh HTS RFP	Structure
0	-1	-3.9	CCC(=O)N(C)C[C@H]1Oc2cc(C#CC3CC3)ccc2S(=O)(=O)N([C@H](C)CO)C[C@@H]1C
0	6	0.4	C[C@@H]1CN([C@@H](C)CO)C(=O)c2cc(NC(=O)Cc3cn(C)c4ccccc34)ccc2O[C@H]1CN(C)Cc1ccc(Cl)c(Cl)c1
0	5	-1.3	COc1ccc(C#Cc2ccc3c(c2)[C@H]2[C@H](CCN2S(=O)(=O)c2ccccc2F)[C@H](CO)N3C)cc1
-37	-67	9.5	C[C@@H]1CN([C@H](C)CO)C(=O)Cc2cc(NC(=O)Nc3ccc(F)cc3)ccc2O[C@@H]1CN(C)Cc1ccccc1
0	5	-0.7	C/C=C/c1ccc([C@H]2[C@@H](CNC(=O)CC)N(Cc3ccccn3)[C@H]2CO)cc1
-4	6	0.6	CC(C)C#Cc1cnc2c(c1)C(=O)N([C@H](C)CO)C[C@@H](C)[C@H](CN(C)C(=O)c1cnccn1)O2
